High-throughput results (PubChem)
RecA splice inh: inhibitors of M. tuberculosis RecA intein splicing; inhibition, %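 (about 9 µM by stock and volumes)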; P9WHJ3; 0.75% of 290,000 active; cell-free RecA intein splicing, fluorescence; in the data active means inhibition above about 30%; inconclusive means no clear call, values can overlap the other calls;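 further: 0% = vehicle wells and 100% = reference inhibitor control wells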
Target sequence (P9WHJ3 whole entry, looked up, canonical isoform): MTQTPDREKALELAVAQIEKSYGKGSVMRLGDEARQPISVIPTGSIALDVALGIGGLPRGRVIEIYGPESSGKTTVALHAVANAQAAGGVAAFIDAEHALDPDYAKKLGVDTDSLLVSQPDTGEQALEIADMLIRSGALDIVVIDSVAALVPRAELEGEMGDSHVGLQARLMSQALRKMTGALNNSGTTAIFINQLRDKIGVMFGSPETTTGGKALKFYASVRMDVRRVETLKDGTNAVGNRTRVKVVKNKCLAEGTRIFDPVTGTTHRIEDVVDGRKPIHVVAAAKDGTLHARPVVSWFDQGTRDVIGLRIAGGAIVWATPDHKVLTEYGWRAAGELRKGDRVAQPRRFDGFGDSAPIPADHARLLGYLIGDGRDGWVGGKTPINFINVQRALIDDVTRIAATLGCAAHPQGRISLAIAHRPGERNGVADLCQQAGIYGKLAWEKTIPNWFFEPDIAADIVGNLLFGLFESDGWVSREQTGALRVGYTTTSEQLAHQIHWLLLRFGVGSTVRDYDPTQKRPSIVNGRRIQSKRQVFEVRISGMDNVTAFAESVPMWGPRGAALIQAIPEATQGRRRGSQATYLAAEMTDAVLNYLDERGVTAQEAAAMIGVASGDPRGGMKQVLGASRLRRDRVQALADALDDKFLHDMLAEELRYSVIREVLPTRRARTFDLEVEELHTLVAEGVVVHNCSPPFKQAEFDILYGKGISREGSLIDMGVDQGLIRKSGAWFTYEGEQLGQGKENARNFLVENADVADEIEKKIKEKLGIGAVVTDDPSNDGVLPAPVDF
Arbovirus inh: antivirals against arbovirus infection | arbovirus infection cell-based antiviral screen | inhibition, % at 10 µM | 0.37% of 200,000 active | AID 1251;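 active means inhibition from about 30%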;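 further: bluetongue infection of BSR cells; cell survival read as ATP light after 72 h; 0% = infected wells without compound and 100% = uninfected wells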
Mtb betalactam: beta-lactam sensitization of Mtb H37Rv. M. tuberculosis H37Rv growth with meropenem, percent inhibition; hits of this screen are not shown here. inhibition, % at 25 µM. 0.27% of 330,000 active. AID 434955;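 active means about 74% or more and at least 40 points above the plate without the antibiotic, then above 30% in a dose series; inconclusive means first-round hits that could not be retested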;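 further: growth measured after seven days incubation then overnight dye step; 0% = bacteria only wells and 100% = bacteria with antibiotic; twin plates without the antibiotic show which effects depend on it; some results filed as inactive read as strong as hits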
Mtb growth: M. tuberculosis H37Rv growth inhibitors, H37Rv strain (AID 1626); 0.95% of 220,000 active; inhibition, % at 10 µM; hits with a dose series show IC50 in µM; M. tuberculosis H37Rv growth inhibition; higher % means a stronger effect;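 active means confirmed in a dose series; inconclusive means inhibition above 80% but not taken into the dose series; inactive means below 80% or under 30% at every dose of the series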;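 further: bacteria incubated seven days before Alamar blue readout; 0% = bacteria only wells and 100% = bacteria with antibiotic wells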
YopH PTP inh: YopH (Yersinia) phosphatase inhibition | 0.16% of 140,000 active | fluorescence Ex485/Em525 | AID 898 | inhibition, %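 (about 10 µM by stock and volumes)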;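 active means inhibition of 50% or more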;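 further: controls were vehicle for no effect and minimum signal wells for full effect; inactives centre near -20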
Arbovirus inh repeat: recorded beside Arbovirus inh, whose call it bears; inhibition, %; measured here: 10K subset replicate screen; many hits read low in the repeat;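 first of two repeat runs on a subset; 0% = infected and 100% = uninfected wells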
* hit, by the source's call; ? = inconclusive; nt = not tested or not shown.

SMILES	RecA splice inh	Arbovirus inh	Mtb betalactam	Mtb growth	YopH PTP inh	others
COC(=O)c1cccc(C23CC4(C2)[C@H](CN(C)[C@@H]4c2ccccc2)C3c2ccc(C(F)(F)F)cc2)c1 (stereo not given in full)	12	nt	-3	-5%	nt
Cc1cc(/C=N/Nc2ccc([N+](=O)[O-])cn2)c(C)n1-c1ccc(C(=O)O)cc1	-2.8	3	7	-7%	nt
Cc1ccccc1N=C1SCCN1C(=O)CN1C(=O)NC2(CCCC2)C1=O	2.7	nt	-7	nt	nt
CC1CCN(S(=O)(=O)c2cccc(S(=O)(=O)N3CCCC3)c2)CC1	4.1	nt	3	nt	nt
O=C(CSc1nnc(NC(=O)c2ccc3c(c2)OCO3)s1)NCc1ccco1	1.0	-2	1	-3%	nt
COc1ccc(CCNS(=O)(=O)CCNC(=O)c2ccccc2)cc1	-3.9	nt	-10	nt	nt
Cc1ccc(NC(=O)CCc2c(C)nn(-c3ccc(N4CCCCC4)nn3)c2C)cc1	1.8	nt	5	nt	nt
O=Cc1cn(Cc2cccc([N+](=O)[O-])c2)c2ccccc12	-0.6	9	-1	6%	-20
COC(=O)c1cccc(C#CC(NP(=O)(c2ccccc2)c2ccccc2)c2ccccc2)c1 (stereo not given)	5.5	nt	100	5%	nt
O=C(O)c1ccc(-c2ccccc2Cl)o1	nt	-3	6	1%	-24
Cc1cc(C(C)(C)C)oc1C(=O)N(CC(=O)NC1CCCC1)c1ccc(F)cc1	3.2	-8	1	16%	-9
CC(CNc1nc2ccccc2n2cnnc12)c1ccccc1 (stereo not given)	-2.4	nt	3	nt	nt
Cc1ccccc1C(=O)NNC(=S)NC(=O)c1ccccc1	-1.2	-32	97	?	-33
CC(C)c1ccccc1NC(=O)CCc1nc2ccccc2s1	0.0	-3	2	2%	-22
COc1ccccc1C(=O)NCc1nnc(SCC(=O)Nc2nccs2)n1C	-0.1	nt	-1	nt	nt
Cc1[nH]n(-c2ccccc2)c(=O)c1C(=O)c1ccc([N+](=O)[O-])cc1	3.5	2	3	-10%	nt
Cc1ccc(S(=O)(=O)c2c(O)c3ccc(C(=O)O)cc3[nH]c2=O)cc1	-6.7	nt	4	nt	nt
COCCn1c(SCC(=O)Nc2cccc(F)c2)nc2c(c1=O)SCC2	1.8	nt	-3	nt	nt
C=CCNC(=O)/C(C#N)=C/c1ccc(OS(=O)(=O)c2ccc(C)cc2)c(OC)c1	17	-31	-8	1%	0
CCOc1cc(NC(=O)c2cccs2)c(OCC)cc1NC(=O)CCC(=O)NCc1ccccn1	-2.8	nt	2	5%	nt
CCN(CC)Cc1ccccc1Sc1ccccc1	-1.0	3	-11	12%	-10
CC1(C)CC(=O)C=C(N=CC2=C(O)CC(C)(C)CC2=O)C1	nt	1	-13	0%	-19
COc1cccc(OC2OC3COC(C)(C)OC3C(O)C2NC(C)=O)c1 (stereo not given)	-0.4	14	1	3%	nt
Cc1ccc(S(=O)(=O)Nc2ccncc2)c(C)c1N(C)S(=O)(=O)c1ccc(Cl)cc1	1.5	11	-2	-9%	-13
CC1CCN(S(=O)(=O)c2ccc(C(=O)NCc3cccnc3)cc2)CC1	-3.0	-5	-4	10%	nt
CN(C)c1cccc(NC2=CC(=[N+]3CCOCC3)CC(C)(C)C2)c1	1.5	2	-3	-8%	-7
O=C(COC(=O)Cc1c(F)cccc1Cl)Nc1nnc(-c2ccccc2)o1	4.0	nt	94	nt	nt
C=CCNC(=O)/C(C#N)=C/c1ccccc1[N+](=O)[O-]	-3.6	-2	0	1%	-9
O=C(N/N=C/c1cn(Cc2cccc(F)c2)c2ccccc12)c1cc(O)cc(O)c1	4.2	nt	2	nt	nt
CC(NC(=O)CCc1nc2cc(S(=O)(=O)N3CCOCC3)ccc2n1C)c1ccc(S(N)(=O)=O)cc1 (stereo not given)	-0.2	nt	-13	nt	nt
Cn1c(=O)n(C)c2cc(NC(=O)COc3ccc(Cl)cc3)ccc21	-0.4	-4	-3	0%	nt
CN(C1CCCCC1)S(=O)(=O)c1ccc(C(=O)Nc2sc3c(c2C(N)=O)CC(C)(C)NC3(C)C)cc1	-22	nt	5	nt	nt
CN1CCN(C(=O)CNC(=O)Cc2ccc(Cl)cc2)CC1	-0.7	nt	-7	nt	nt
O=C(c1cccc(S(=O)(=O)N2CCCC2)c1)N1CCN(c2ncccn2)CC1	2.0	3	1	-1%	8
Cc1cc(Cl)c(S(=O)(=O)N2CCN(c3ccccc3)CC2)cc1OCC(N)=O	-3.9	-8	0	-3%	38
CC(O)CNc1cnccn1 (stereo not given)	-3.6	11	3	6%	nt
O=C(CN1CCCC1)Nc1ccccc1Cl	0.3	1	-16	-4%	-25
CCC(Sc1nc2ncccc2[nH]1)C(=O)N1CCOCC1 (stereo not given)	-1.8	nt	-3	nt	nt
COC(=O)c1ccccc1S(=O)(=O)N1CCC(C(=O)OC(C)C(=O)Nc2ccc(NC(C)=O)cc2)CC1 (stereo not given)	-0.7	nt	-9	nt	nt
COc1ccc(CNC(=O)c2ccc[nH]2)cc1Cl	1.0	2	-3	-1%	nt
CCN(CC)C(=O)c1sc2nc(-c3ccccn3)[nH]c(=O)c2c1C	-0.5	nt	88	nt	nt
CCOC(=O)NNC(=S)Nc1c(C)n(C)n(-c2ccccc2)c1=O	1.3	nt	0	-8%	nt
O=C(CSc1nc(COc2ccccc2)nc2ccccc12)NC1CCCC1	0.6	4	-5	4%	nt
NC(=O)c1ccc(-c2csnn2)cc1	-1.7	nt	-5	1%	nt
COc1cccc(NC2=Nc3cccc4cccc2c34)c1	1.3	15	67	76%	-24
O=C(NC1CCCC1)C(c1ccccc1)N(Cc1ccc(F)cc1)C(=O)c1csnn1 (stereo not given)	-2.7	nt	3	nt	nt
CCC(C)C(NS(=O)(=O)c1ccc(C)cc1)C(=O)NCCCN1CCOCC1 (stereo not given)	-3.4	nt	5	nt	nt
O=c1c2ccccc2[nH]c(=S)n1-c1ccc(Br)cc1	-1.2	4	-10	2%	nt
COc1ccc(NC(=S)N(CCO)Cc2cc3c(C)cc(C)cc3[nH]c2=O)cc1	1.4	nt	-1	?	nt
CCC1=NC(c2ccccc2Cl)N(O)C1(C)C (stereo not given)	-4.2	8	1	0%	2

Following part:
SMILES	RecA splice inh	Arbovirus inh	Mtb betalactam	Mtb growth	YopH PTP inh	others
O=[N+]([O-])c1ccc(N2CCN(CCOCCO)CC2)c([N+](=O)[O-])c1	-1.5	13	2	-4%	nt
COCc1c(C(=O)N/N=C\c2cccs2)nnn1-c1nonc1N	-1.7	nt	3	nt	nt
CCOC(=O)C1(Cc2cccc(OC)c2)CCN(Cc2ccc(OC)c(O)c2)CC1	-5.7	13	5	0%	nt
CC1(NC(=O)CCc2nc3ccccc3c(=O)[nH]2)CCS(=O)(=O)C1 (stereo not given)	-2.8	nt	-4	nt	nt
CCOc1cc(CNCc2cc(OC)cc(OC)c2)ccc1OC	1.6	nt	-3	nt	nt
COc1ccc(OCc2nnc(SCC(=O)Nc3ccccc3C#N)o2)cc1	4.4	nt	3	nt	nt
O=C1c2ccsc2SCCN1Cc1ccc(Cl)cc1Cl	5.2	-1	4	14%	-32
O=C(COC(=O)c1cc([N+](=O)[O-])ccc1NCc1ccccc1)NC1CCCc2ccccc21 (stereo not given)	-4.4	-4	36	11%	-13
Cc1noc(C)c1COc1ccc(C(=O)OC(C)C(=O)Nc2ccc(S(=O)(=O)N3CCOCC3)cc2)cc1 (stereo not given)	2.6	6	0	13%	-5
CCNc1nc(=S)nc(NCc2ccccc2)[nH]1	-2.5	6	-9	-2%	nt

In the list so far, three contain a furan ring, fused or not.
SMILES	RecA splice inh	Arbovirus inh	Mtb betalactam	Mtb growth	YopH PTP inh	others
O=C(CSc1nnc(NC(=O)c2ccc3c(c2)OCO3)s1)NCc1ccco1	1.0	-2	1	-3%	nt
O=C(O)c1ccc(-c2ccccc2Cl)o1	nt	-3	6	1%	-24
Cc1cc(C(C)(C)C)oc1C(=O)N(CC(=O)NC1CCCC1)c1ccc(F)cc1	3.2	-8	1	16%	-9

Next results:
SMILES	RecA splice inh	Arbovirus inh	Mtb betalactam	Mtb growth	YopH PTP inh	others
Cc1cc(C)nc(NC(=O)c2c(-c3ccccc3Cl)noc2C)n1	-0.8	22	-1	-13%	-10
COc1ccc(CCC(=O)NCC(c2ccco2)N2CCc3ccccc32)cc1 (stereo not given)	5.0	nt	-13	nt	nt
CCCCCC(=O)Nc1cccc(-c2nc3ncccc3o2)c1	-1.6	-13	-1	-8%	-17
CCCc1nc2scc(-c3ccc(C)cc3)c2c(=O)n1N	-1.2	15	-11	-9%	-3
Cc1nn(CC(=O)Nc2ccc(N3CCOCC3)cc2)c(C)c1Cl	1.3	nt	2	nt	nt
O=C(CN1C(=O)c2ccccc2C1=O)OC(C(=O)c1ccc(Cl)cc1)c1ccccc1 (stereo not given)	-0.9	6	21	-4%	-30
Cn1c(CNC(=O)OC(C)(C)C)n[nH]c1=S	-0.3	6	-12	-4%	nt
COc1ccccc1S(=O)(=O)Cc1ccc(C(=O)NCC(OC)OC)o1	-1.8	nt	0	nt	nt
Cc1ccc(C(=O)NC(=S)NCC2CCCO2)cc1Br (stereo not given)	1.3	14	0	5%	-34
COc1ccc(CNC(=O)c2ccc(CS(=O)c3ccccc3)o2)cc1 (stereo not given)	-4.9	nt	-2	nt	nt
O=C(Nc1ccc(CN2CCOCC2)cc1)c1ccc(-c2ccc(Cl)cc2Cl)o1	14	-33	84	3%	nt
COc1cccc(C2CC(c3cccc(Br)c3)n3nc(N)nc3N2)c1 (stereo not given)	-0.8	7	-4	-3%	-34	Arbovirus inh repeat=4
COc1ccc2[nH]cc(CCN3C(=O)CCC3=O)c2c1	-0.4	0	-5	-4%	-8
CCOc1ccc(OCC)c(NC(=O)C2CCCN(c3ncccn3)C2)c1 (stereo not given)	-0.4	0	nt	2%	-41
Cc1cc(Nc2ncc(Cl)cc2Cl)n[nH]1	2.1	-5	94	-3%	10
COCCC(=O)N1CCC(Oc2ccc(C(=O)NCCc3cn[nH]c3)cc2)CC1	-1.1	nt	4	nt	nt
Cc1ccc(C(C(=O)NC2CCCCC2)N(C(=O)c2csnn2)C2CC2)o1 (stereo not given)	-1.8	5	-10	-9%	-34
Cc1ccc(C)c(Nc2nc3c(S(=O)(=O)c4ccccc4)nnn3c3ccccc23)c1	-0.4	-14	6	-3%	-37
Cc1cc(C)cc(C(=O)NCCCN2CCOCC2)c1	0.3	nt	1	nt	nt
Cc1cccc(NC(=O)c2cc3ccccc3oc2=O)c1	-1.3	nt	-6	nt	nt
N#C/C(=C/N1CCOCC1)c1ccccc1	0.8	-1	8	-2%	0
CN(C)NC(=S)NC1CCS(=O)(=O)C1 (stereo not given)	0.4	nt	-4	-4%	nt
COCCn1nnnc1C(c1ccc2ncccc2c1)N1CCN(c2ccccc2F)CC1 (stereo not given)	5.0	10	-1	-3%	-36
O=C(O)c1cccc(COc2cccc3ccccc23)c1	1.2	nt	1	nt	nt
COc1ccccc1-c1cc(C(=O)NCCCN2CCOCC2)no1	0.4	nt	-2	nt	nt
Cc1cc(C)n(CCC(=O)N/N=C/c2cccc([N+](=O)[O-])c2)n1	-0.6	nt	-6	-3%	nt
CCOC(=O)c1c(C)cccc1OCC(N)=O	-0.1	-7	-5	-9%	-1
O=C(C1CCCO1)N1CCN(C(=S)NC2CC2)CC1 (stereo not given)	-4.3	4	-4	-4%	nt
CN(C)CCNC(=O)c1scc2c1CCCC2	-1.2	nt	-4	4%	nt
CCCCn1nc(NS(=O)(=O)c2cccc3nonc23)c2cc3cccc(C)c3nc21	-14	nt	?	nt	nt
COc1ccc(-c2noc(Cc3ccccc3OC)n2)cc1	4.9	-4	0	12%	-26	Arbovirus inh repeat=1
COc1ccc(/C=N/c2sc3c(c2C#N)CCN(Cc2ccccc2)C3)c(O)c1	-1.4	0	6	1%	-19
O=C(Cc1ccc([N+](=O)[O-])cc1)Nc1cc(C(F)(F)F)cc(C(F)(F)F)c1	nt	nt	100	0.37µM*	nt
COc1cc(-c2nnc(SCC#CCO)o2)cc(OC)c1OC	-1.7	2	3	-4%	-29
Cc1ccnc(NC(=O)CNC(=O)c2ccccc2Br)c1	0.3	nt	-4	nt	nt
Cc1ccccc1N(CC(=O)N1CCCC1)S(=O)(=O)c1ccc(Cl)cc1	1.3	nt	-1	nt	nt
O=C(N/N=C1\CC2CC=CC12)c1ccc(COc2ccccc2)cc1 (stereo not given)	0.4	-16	73	7%	-33
COc1ccc(C(=O)NCCCNC(=O)c2cnccn2)cc1Br	3.0	nt	6	nt	nt
C1CCC(C23CC4CC(CC(C4)C2)C3)NC1 (stereo not given)	0.7	3	-3	2%	4

2 compounds picked at random from the list so far, as already listed:
SMILES	RecA splice inh	Arbovirus inh	Mtb betalactam	Mtb growth	YopH PTP inh	others
Cc1ccc(NC(=O)CCc2c(C)nn(-c3ccc(N4CCCCC4)nn3)c2C)cc1	1.8	nt	5	nt	nt
CC1CCN(S(=O)(=O)c2cccc(S(=O)(=O)N3CCCC3)c2)CC1	4.1	nt	3	nt	nt

The list is partial. The share of hits here may be higher or lower than overall.
